Compound activity from PubChem BioAssay.
Sa RN4220 lethal: growth inhibition of S. aureus RN4220, primary screen, OD600. 330,000 compounds, 0.33% hits. inhibition, % (test concentration not listed). AID 1259311, 2017. 16 h;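 active = z-score of -3 or lower and OD600 up to 0.18 on both plates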;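 also: plate controls were untreated cells for no effect and reference antibiotic for full effect; stock transfer was 100 nL into about 80 µL; one replicate is shown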
PrP 5UTR inh: inhibition of PrP 5' UTR reporter expression; cell-based PrP 5' UTR mRNA reporter, plate reader; inhibition, % (test concentration not listed); 340,000 compounds, 0.35% hits;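 active = every replicate at 50% or more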;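 also: 0 = median of the neutral control wells; tested in H4 reporter cells; numbers are from one replicate; inactives centre near -14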
ugtP null kill: growth inhibition of ugtP-null S. aureus, primary screen, RN4220 ugtP deletion, OD600. 16 h; some inactives read as strong as hits. AID 1259309, 2017. 330,000 compounds, 0.54% hits. growth inhibition, % (test concentration not listed);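 active = z-score under -3 and OD600 up to 0.15 on both plates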;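 also: plate controls were untreated wells for no effect and antibiotic for full effect; wells of about 80 µL received 100 nL stock; the first replicate is given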
Mtb hypoxia rep: PubChem AID 1159583. M. tuberculosis hypoxia-regulated fluorescent reporter, fluorescence. fluorescence inhibition, % (concentration not given with the values). 300,000 compounds, 0.1% hits;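 active = 35 to 45% if threefold the growth effect, above 45% if 1.5-fold the growth effect; inactive = the rest, general growth blockers included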;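 also: wells of about 50 µL received 100 nL stock; 0% = vehicle wells and 100% = reference inhibitor wells; whole bacteria with a GFP reporter of the hypoxia response; strong numbers were not always called active; many hits fall short of the cut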
Autofluor counter: compound fluorescence in toxin protease inhibitor counterscreen. compound autofluorescence counterscreen, microsphere flow cytometry; stronger effect = higher value. fluorescence intensity (no concentration beside the values). 360,000 compounds, 3.1% hits;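 active = at least 3 SD above the mean of all compounds, about 16000 in these data; inconclusive = too few beads counted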;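 also: 100 nL of 1 mM stock went into each well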
BJeLR viability: MLPCN primary cell-based screen for lethality selective to Ras in HRASV12 cells. BJeLR (HRASV12) viability, CellTiter-Glo ATP luminescence, 48 h; reference of the scale not given here. inhibition, % (test concentration not listed). 300,000 compounds, 0.17% hits;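 active = replicate mean above 50%; inconclusive = above 50% but judged a plate artefact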;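 also: 50 nL library stock added to about 25 µL; numbers are from one replicate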
Mtb hypoxia rep growth: recorded beside Mtb hypoxia rep, whose call it bears; growth inhibition, %; measured here: M. tuberculosis growth (absorbance);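 0% = vehicle and 100% = reference antibiotic; read after six days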
Active calls of the source: *; ? = inconclusive; · = no result given. Hits appear at their usual frequency. About 4% of those tested had a hit in this group.

No.	Compound	Sa RN4220 lethal	PrP 5UTR inh	ugtP null kill	Mtb hypoxia rep	Mtb hypoxia rep growth	Autofluor counter	BJeLR viability
1	CCC1CN1P(=S)(N1CC1CC)N1CC1CC (configuration not stated)	7.3	-8.7	10.6	6.5	2.4	2963	·
2	C=CCc1cc(C=O)cc(OC)c1OCc1ccc(C(=O)O)cc1	-0.1	-9.5	-2.0	-7.2	7.5	4297	1.9
3	N=c1c[n+](-c2ccc(Cl)cc2)[n-]o1	1.9	-11.1	13.8	·	·	2467	3.1
4	COc1cccc(-c2nc(CS(=O)(=O)CC(=O)Nc3ccccc3C)c(C)o2)c1	-0.2	-2.9	-1.5	1.4	-1.8	4911	0.1
5	CC(=O)c1ccc(NC(=O)Nc2ncn(Cc3cccc(C)c3)n2)cc1	3.0	-17.5	-4.6	4.7	6.7	9957	-0.4
6	Cc1nnsc1C(=O)N1CCCC(Nc2ccc(F)c(F)c2)C1 (configuration not stated)	3.4	-7.7	3.4	13.5	1.5	6052	-5.8
7	CCc1cccc(NC(=O)Cc2ccc([N+](=O)[O-])cc2)c1	3.2	-13.9	-1.2	3.4	2.3	1947	11.8
8	CCn1c(SCC(=O)N/N=C/C=C/c2ccco2)nnc1-c1ccc(OC)cc1	·	-15.8	·	·	·	2516	-2.4
9	CC[C@]12c3[nH]c4ccccc4c3CCN1C(=O)C(CC(=O)NCc1ccc(OC)c(OC)c1)C[C@@H]2C(=O)N1CCN(C(=O)C2CC2)CC1 (some centres not stated)	1.5	-11.4	-0.3	-8.1	9.8	3912	·
10	COc1ccccc1NC(=O)CCN1C(=O)c2ccccc2S1(=O)=O	4.0	-34.1	3.4	5.9	4.6	4639	·
11	O=C(NC(Cc1c[nH]c2ccccc12)C(=O)O)c1ccccc1 (configuration not stated)	3.4	-16.2	-1.7	14.2	9.3	9714	6.2
12	CCOc1ccc(N(Cc2cc3cc(C)ccc3[nH]c2=O)C(=O)COC)cc1	-0.2	-13.5	-2.1	1.2	16.6	3771	-11.5
13	CCOC(=O)[C@]12Cc3cc(C)ccc3C1N(Cc1ccccc1)C(=O)c1ccccc12 (some centres not stated)	2.0	·	-10.6	7.9	14.3	·	·
14	CNC(=O)/C(=C/c1ccc2c(c1)OCO2)NC(=O)c1ccc(Br)cc1	16.9	-8.1	20.6	3.3	2.9	9697	6.9
15	Cc1ccc(N2C(=O)S/C(=C/c3cn(C)c4ccccc34)C2=O)cc1	-2.8	-103.2	-2.0	2.1	5.6	2604	-3.3
16	COc1ccccc1C(=O)NCCC(=O)Nc1ccc(S(=O)(=O)N2CCC(C)CC2)cc1	1.5	-9.8	4.5	2.0	6.2	2800	·
17	O=C(C1CCCN(Cc2ccccc2[N+](=O)[O-])C1)N1CCCCC1 (configuration not stated)	3.6	-4.0	14.4	11.4	2.6	3259	0.7
18	O=C(CCCN1CC=C(n2c(=O)[nH]c3ccccc32)CC1)c1ccc(F)cc1	6.0	-5.1	-4.7	-3.1	0.8	4298	-12.6
19	CC(C)N1CCOC1c1ccccc1 (configuration not stated)	4.8	-18.3	4.6	8.4	5.2	3101	·
20	CC(NCc1ccc(S(N)(=O)=O)cc1)C(=O)Nc1ccc([N+](=O)[O-])cc1Cl (configuration not stated)	0.0	-11.7	17.0	6.7	3.7	3253	-28.0
21	Cc1ccc(SCc2cc(=O)[nH]c(N3CCCCC3)n2)cc1	10.6	-26.6	4.8	7.5	2.0	4425	-1.6
22	CN1CCCC1=CC=C1C(=O)N(C)C(=S)N1C	2.4	·	-2.3	5.1	6.3	·	·
23	CCN(CC)S(=O)(=O)c1ccc(N2CCOCC2)c(NC(=O)C2COc3ccccc3O2)c1 (configuration not stated)	5.8	-22.3	11.7	6.1	9.4	4060	4.4
24	N#CC(CO)(Cc1ccc(OC(F)F)cc1)c1nc2ccccc2[nH]1 (configuration not stated)	·	-23.1	·	·	·	2923	20.3
25	O=C(Nc1ccccc1)c1ccc2c(c1)CCN2S(=O)(=O)c1ccccc1	1.4	-20.4	3.9	-3.0	-4.1	4592	-6.8
26	COc1ccc(NS(=O)(=O)c2cc3c(cc2C)N(C(C)=O)CCO3)c(OC)c1	4.4	-16.8	-1.8	11.0	10.0	6475	3.2
27	CCOC(=O)c1c(C)c(C(=O)OCC)n(C)c1C	1.0	-20.3	9.5	9.2	-4.8	3832	12.0
28	CSc1nc2nccc(/C=C\c3ccccc3)n2n1	13.0	5.2	-13.6	4.0	0.1	21761*	-0.5
29	CN(C)/C=C/c1onc(-c2c(F)cccc2Cl)c1C#N	·	-7.1	·	·	·	2020	-0.3
30	COC(=O)[C@]1(C)N[C@H](CN(C)C(=O)Nc2ccc(Cl)cc2)[C@@H]2C(=O)N(C)C(=O)[C@@H]21	1.7	-18.1	-1.2	8.3	7.5	3950	·
31	COc1ccc(OC)c(NC(=O)C2CCCN2S(=O)(=O)c2cccc3nsnc23)c1 (configuration not stated)	1.7	-16.3	0.2	3.6	4.3	5019	-0.6
32	Cc1nc(Cl)c(C#N)cc1-c1ccccc1	3.4	-4.0	3.1	6.8	15.8	19692*	-3.5
33	Cc1ccc(NN=C(Sc2nnnn2-c2ccccc2)C(=O)c2ccccc2)cc1	4.6	·	5.9	4.9	1.0	·	·
34	O=c1ccnc2n1COCS2	1.6	-20.1	4.9	-0.2	6.4	4472	6.6
35	Cc1ccc(CNc2cccnc2)cc1	3.2	-9.7	10.9	9.5	-0.8	3458	-0.8
36	Cc1cccc(NC(=S)N2CCC(c3nc4ccccc4s3)CC2)c1	1.4	-11.3	-7.6	1.5	3.6	13097	5.6
37	CCc1ccc(/C=C2/SC(=S)N(CCC(=O)Nc3cccc(C(=O)O)c3)C2=O)cc1	12.0	-3.4	2.9	-3.3	-0.5	5579	1.3
38	O=C(NCCSc1ccccc1)c1cncc(Br)c1	4.0	-80.7	5.4	·	·	3015	3.5
39	COc1ccc(/C=N/Nc2cc(N(C)C)nc(N(C)C)n2)cc1	·	-7.3	·	·	·	2701	13.0
40	O=C(NCc1ccccc1)c1onc(CS(=O)(=O)c2ccccn2)c1C(=O)NCc1ccccc1	-7.4	-9.6	-12.4	1.2	9.4	4292	5.5
41	Cc1ccc(C(=O)Cn2c(=N)n(CCN3CCOCC3)c3ccccc32)cc1	1.3	-5.6	-1.3	4.8	13.3	4052	·
42	COc1cc(C(C)=O)ccc1OC(=O)c1cc2cccc(OC)c2oc1=O	8.7	-12.9	5.1	10.4	8.9	4568	-1.5
43	COc1cc(C(=O)Nc2cccc3cccnc23)cc(OC)c1OC	0.3	-6.2	-6.5	·	·	2772	5.7
44	CCOc1ccc(C(C)(C)C)cc1S(=O)(=O)N1CCOCC1	4.2	-9.2	0.6	·	·	2020	3.9
45	COc1ccccc1NC1=C(Cl)C(=O)N(c2ccccc2)C1=O	3.4	-17.2	5.0	10.5	3.6	2171	-8.8
46	CCC(C)/C(C)=N/NC(=O)C1COc2ccccc2O1 (configuration not stated)	·	-7.4	·	·	·	2566	-3.2
47	CCCC(=O)Nc1nn(C)c2nc3c(C)cccc3cc12	-2.1	-2.5	-1.1	1.6	0.4	4193	-0.6
48	COc1cccc(-c2nc(=S)c3c(o2)CCCC3)c1	2.1	-84.0	10.2	14.7	13.8	4070	2.7

Filtered by structure: the compounds so far containing two or more sulfur atoms
No.	Compound	Sa RN4220 lethal	PrP 5UTR inh	ugtP null kill	Mtb hypoxia rep	Mtb hypoxia rep growth	Autofluor counter	BJeLR viability
31	COc1ccc(OC)c(NC(=O)C2CCCN2S(=O)(=O)c2cccc3nsnc23)c1 (configuration not stated)	1.7	-16.3	0.2	3.6	4.3	5019	-0.6
36	Cc1cccc(NC(=S)N2CCC(c3nc4ccccc4s3)CC2)c1	1.4	-11.3	-7.6	1.5	3.6	13097	5.6
37	CCc1ccc(/C=C2/SC(=S)N(CCC(=O)Nc3cccc(C(=O)O)c3)C2=O)cc1	12.0	-3.4	2.9	-3.3	-0.5	5579	1.3

New compounds follow
No.	Compound	Sa RN4220 lethal	PrP 5UTR inh	ugtP null kill	Mtb hypoxia rep	Mtb hypoxia rep growth	Autofluor counter	BJeLR viability
49	FC(F)(F)c1cc(-c2ccccc2)nc(N2CCCCC2)n1	1.4	-23.8	47.0	·	·	3798	-6.8
50	O=C(CN(C(=O)CNC(=O)c1cccs1)c1ccccc1)NC1CCCCC1	1.6	-26.3	-4.2	11.0	1.5	3704	2.8
51	Cc1cccc(CNc2ncnc3ccc(-c4ccc5c(c4)OCO5)cc23)c1	-28.9	-14.8	-26.6	-0.8	4.7	4457	·
52	Cc1ccccc1NC(=O)C(C)SCc1ccccc1 (configuration not stated)	5.2	-16.3	9.2	9.2	13.4	3912	-3.0
53	O=C(NC1CCCCC1)C1CC=CCC1C(=O)OCC(Cl)=C(Cl)Cl (configuration not stated)	-1.5	-0.3	-8.4	·	·	4916	-3.0
54	N#Cc1c(Nc2ccc(Cl)cc2)s[nH]c1=O	9.5	-12.0	-5.0	-2.3	4.0	4740	2.4
55	O=C(CNC(=O)c1cccc(Br)c1)NN=Cc1cc(Br)cc(Br)c1O	-9.9	·	-10.3	5.9	-0.6	·	·
56	CCOn1c(=O)c(=O)n(O)c2ccccc21	4.0	31.4	5.4	18.3	0.5	4438	7.1
57	CC1(C)SC2C(NC(=O)COc3ccccc3)C(=O)N2C1C(=O)OCc1ccccc1 (configuration not stated)	100.4*	·	100.5*	-3.7	6.8	·	·
58	CC(=O)Nc1ccccc1NC(=O)C/C(C)=N/NC(=O)Cc1cccc2ccccc12	·	-10.7	·	·	·	5582	-13.1
59	CC(=O)c1cccc(NC(=O)NC2CCCc3ccccc32)c1 (configuration not stated)	2.2	-2.0	12.8	8.4	4.2	3225	0.5
60	O=C1COc2ccc(C(=O)COC(=O)CCc3ccc(S(=O)(=O)N4CCOCC4)cc3)cc2N1	-14.6	-11.8	-5.6	12.4	10.8	3091	-12.1
61	CCCOc1ccc(-c2nc(OCC)c3ccccc3n2)cc1	5.6	-45.9	10.3	-5.2	9.3	7163	5.0
62	CCn1c2ccccc2c2cc(C=NNC(=O)c3cccc(C)c3)ccc21	-3.9	·	-10.7	4.1	2.2	·	·
63	COCCn1c(-c2ccccc2)cnc1N	1.0	-1.9	4.8	8.1	1.1	2901	0.5
64	CC(=O)OCC1OC(OCc2cn(C[C@H]3CC[C@H](Cn4cc(COC5OC(COC(C)=O)C(OC(C)=O)C(OC(C)=O)C5OC(C)=O)nn4)O3)nn2)C(OC(C)=O)C(OC(C)=O)C1OC(C)=O (some centres not stated)	·	-18.7	·	·	·	3970	-8.6
65	CCCCN1C(=O)C(=O)N(CC(=O)c2cc(C)n(-c3cc(C)on3)c2C)C1=O	2.7	-11.2	2.7	4.9	1.0	9120	·
66	Cc1cc(C)c(C(=O)N2CCC(N3CCC(C(=O)NC(C)C)CC3)CC2)o1	5.5	-10.1	13.9	-0.4	-6.3	?	4.6
67	CC1=[N+]([O-])C(C)(C)N(O)C1(C)C	2.4	-15.0	7.7	17.3	8.0	4614	0.1
68	CCOc1ccc(CNC(=O)c2ccc(Sc3ccc(C)cc3)c(NC(C)=O)c2)cc1	-8.7	-2.9	4.3	10.4	8.9	1957	-16.3
69	O=C(O)c1cc2nccc(-c3ccco3)n2n1	2.5	·	15.0	12.6	-1.2	3556	11.9
70	Cn1c2ccccc2c(=O)c2cc(C#CC3=CCCCC3)ccc21	9.1	-3.5	4.9	-3.1	3.1	4215	·
71	O=C(Nc1cccc(Cl)c1)C1C2CCC3C(CCC21)C3(Cl)Cl (configuration not stated)	44.0	-14.6	50.5	-18.7	-1.3	2514	3.3
72	CN1CCN(Cc2ccc(Br)s2)CC1	4.7	-16.0	4.1	6.1	3.6	13317	-3.0
73	Cc1ncn(C23CC4CC(CC(C4)C2)C3)n1	2.0	-3.9	1.7	13.0	-1.6	2259	1.1
74	CC(C)c1ccc(C=NNC(=O)c2nnn(-c3nonc3N)c2CN(C)C2CCCCC2)cc1	2.8	·	-1.5	2.8	-5.0	·	·
75	CN1C(=O)C(O)(CC(=O)/C=C/c2ccco2)c2ccccc21 (configuration not stated)	-3.8	-7.9	-1.2	-6.6	4.9	3365	-8.0
76	CCN(CC(=O)Nc1ccccc1C(F)(F)F)C(=O)c1ccc2c(c1)NC(=O)CS2	1.4	-27.8	1.2	-0.6	10.3	5185	·
77	Cc1ccccc1S(=O)(=O)Cc1ccc(C(=O)O)o1	3.1	-22.1	11.8	3.4	8.4	8142	2.0
